High-throughput results: PubChem, National Center for Advancing Translational Sciences (NCATS)
VACV Venus inh – vaccinia inhibition (Venus reporter). 330,000 tested, 0.46% active. Vaccinia virus Venus reporter expression, fluorescence. Potency, µM (highest dose often 36.5 µM), inactives show at the top dose activity change, negative = inhibition, actives largely listed as inhibitors; active means well fitted inhibition curve with a large enough effect; inconclusive means small, poorly fitted or top-dose-only effect; inactive means no such curve, though single readings can be large or run the other way; tested in A549 cells; also: nearly all actives have a fitted effect of over 30% in size; inactives centre near -10
Vaccinia mCherry – vaccinia inhibition (mCherry reporter) | AID 720579 | Potency, µM (highest dose often 36.5 µM), inactives show at the highest dose activity change, negative = inhibition, actives largely listed as inhibitors | Vaccinia virus mCherry reporter infection, fluorescence; about a quarter of the inactives have no number | 310,000 tested, 0.63% active; active = well fitted inhibition curve with a large enough effect; inconclusive = small, poorly fitted or top-dose-only effect; inactive = no such curve, though single readings can be large or run the other way; tested in A549 cells; also: nearly all actives have a fitted effect of over 35% in size; inactives centre near -10
Numbers without * were called inactive; [ ] = remark or other dose. % is scaled to controls: 0 for no effect and ±100 for the full control effect; potency is read from the fitted curve at half-maximal effect.

`CCOC(=O)c1c([N+](=O)[O-])c(C)[nH]c(=O)c1C#N` gave VACV Venus inh -5% and Vaccinia mCherry inactive.
`CCCNC(=O)COCc1cc(-c2ccc3c(c2)OCO3)on1` gave VACV Venus inh -6% and Vaccinia mCherry inconclusive.
Screening O=C(N[C@@H](Cc1ccccc1)C(=O)OCc1ccccc1)c1nc[nH]c1C(=O)NCc1ccccc1 returned VACV Venus inh -17% and Vaccinia mCherry inactive.
For Cc1ccc(NC(=S)NCc2cccnc2)cc1 the results were VACV Venus inh -16% and Vaccinia mCherry 4%[1.46 µM].
CC/C(=C\c1ccc(C(=O)OC)cc1)c1cc(OC)cc2oc3ccccc3c12 was read as VACV Venus inh -3% and Vaccinia mCherry -20%.
For O=[N+]([O-])c1ccc2c(c1)C(N1CCN(CCO)CC1)Cc1ccc(F)cc1S2 (configuration not stated) the results were VACV Venus inh -16% and Vaccinia mCherry inactive.
COc1ccc(-n2c(=O)c3ccccc3n(Cc3ccc(F)cc3Cl)c2=O)cc1OC was read as VACV Venus inh -7% and Vaccinia mCherry -8%.
For N#CC(OC(=O)c1ccccc1)c1ccccc1 (configuration not stated) the results were VACV Venus inh -2% and Vaccinia mCherry inactive.
For CN(C)c1cccc(C(=O)N2CCC(c3c[nH]c4ccccc34)(c3c[nH]c4ccccc34)CC2)c1 the results were VACV Venus inh -9% and Vaccinia mCherry -23%.
For O=[N+]([O-])c1cc(S(=O)(=O)N2CCCCC2)ccc1NCCN1CCOCC1 the results were VACV Venus inh -12% and Vaccinia mCherry inactive.
CS(=O)(=O)c1ccc(Cl)c(NC(=O)CN2C(=O)C3CCCCC3C2=O)c1 (configuration not stated) was read as VACV Venus inh -15% and Vaccinia mCherry -15%.
`CCOC(=O)c1cc(NC(=O)N2CCCc3ccccc32)c(C)nc1C` gave VACV Venus inh -6%.
For CC(=O)c1ccc(-c2cnc3c(NC=O)cc(-c4ccccc4Oc4ccccc4)cn23)cc1 the results were VACV Venus inh -19% and Vaccinia mCherry -29%.
`CN(C)C(=O)c1cccc(-c2cnc3c(NC=O)cc(-c4ccc(N(C)C)cc4)cn23)c1` gave VACV Venus inh 25% and Vaccinia mCherry -27%.
Screening CCOC(=O)CNC(=O)/C(=C\c1ccc(F)cc1)NC(=O)c1ccccc1 returned VACV Venus inh -5% and Vaccinia mCherry inactive.
For CCC1(C)Cc2c(C#N)c(N)n(N)c(=S)c2CO1 (configuration not stated) the results were VACV Venus inh -11% and Vaccinia mCherry -27%.
`Cc1nc2ccccn2c(=O)c1NC(=O)COc1ccccc1` gave VACV Venus inh 4% and Vaccinia mCherry 10%.
`COCCNC(=O)CCC1CCN(Cc2ccc(-c3ccccc3)cc2)CC1` gave VACV Venus inh -10% and Vaccinia mCherry -4%.
Screening Cc1cc(C)c2c(=O)cc(C(F)(F)F)oc2n1 returned VACV Venus inh -4% and Vaccinia mCherry -13%.
Screening O=C(NC1CC2CCCC(C1)N2C(=O)Nc1cccc(F)c1)C1CC1 (configuration not stated) returned VACV Venus inh -13% and Vaccinia mCherry 1%.

The final 2 compounds of the section above are carried over, then new ones follow:
Screening Cc1cc(C)c2c(=O)cc(C(F)(F)F)oc2n1 returned VACV Venus inh -4% and Vaccinia mCherry -13%.
Screening O=C(NC1CC2CCCC(C1)N2C(=O)Nc1cccc(F)c1)C1CC1 (configuration not stated) returned VACV Venus inh -13% and Vaccinia mCherry 1%.
`COc1ccccc1/C=C/C(=O)OCC(=O)Nc1ccc2c(c1)OCO2` gave VACV Venus inh -10% and Vaccinia mCherry -13%.
For CC(C)(C)OC(=O)N1Cc2ccccc2C[C@H]1C(=O)NCC(=O)NC1CCCC1 the results were VACV Venus inh -21% and Vaccinia mCherry inactive.
C/C(=N\Nc1nc(C)c(C)s1)c1ccc([N+](=O)[O-])cc1 was read as VACV Venus inh inconclusive and Vaccinia mCherry inconclusive.
`S=C(NCc1ccncc1)Nc1cccc(Cl)c1` gave VACV Venus inh -11% and Vaccinia mCherry inactive.
For O=C1CCCCc2cc(O)c(O)cc21 the results were VACV Venus inh -15% and Vaccinia mCherry -4%.
Screening Nc1ccn([C@@H]2O[C@H](C(=O)NCCc3ccc(F)cc3)[C@@H](O)[C@H]2O)c(=O)n1 returned VACV Venus inh 1% and Vaccinia mCherry 20%.
Screening COc1ccccc1CN1CCC(CNC(=O)c2cnn(-c3ccc(C)c(C)c3)c2C2CCN(C(=O)OC(C)(C)C)CC2)CC1 returned VACV Venus inh inconclusive and Vaccinia mCherry inconclusive.
For COCCNC(=O)C1C(=O)Nc2ccccc2C(=O)N1Cc1ccccc1 (configuration not stated) the results were VACV Venus inh 1% and Vaccinia mCherry -11%.
For CCC(Oc1ccccc1)C(=O)N1CCN(Cc2cc(=O)n3nc(-c4cccc(C)c4)sc3n2)CC1 (configuration not stated) the results were VACV Venus inh inconclusive and Vaccinia mCherry -21%.
`O=C(NC1CCCCC1)c1ccc2snnc2c1` gave VACV Venus inh -12% and Vaccinia mCherry -8%.
For O=C(Cn1cnc2ccccc2c1=O)NCC(=O)N1CCC2(CC1)OCCO2 the results were VACV Venus inh 19%.
`CCOc1ccccc1NC(=O)c1sc2nc(-c3ccc(OC)cc3)ccc2c1N` gave VACV Venus inh -12% and Vaccinia mCherry -22%.
`O=c1c2oc3ccccc3c2n(Cc2cccc(Cl)c2)c(=O)n1Cc1ccc2c(c1)OCO2` gave VACV Venus inh -4% and Vaccinia mCherry -9%.
For O=C(NCc1cccs1)C1CCN(S(=O)(=O)c2cccc([N+](=O)[O-])c2)CC1 the results were VACV Venus inh -6% and Vaccinia mCherry -23%.
Screening COc1ccc(NC(=O)Cn2cc(C(=O)c3cccs3)c3ccccc32)cc1 returned VACV Venus inh -16% and Vaccinia mCherry -12%.
CC(=O)Nc1ccc(OCC(=O)N(CC(C)C)C2CCS(=O)(=O)C2)cc1 (configuration not stated) was read as VACV Venus inh -12% and Vaccinia mCherry inactive.
`CCc1cccc(NC(=O)c2ccc(NS(=O)(=O)c3c(C)noc3C)cc2)c1` gave VACV Venus inh -5% and Vaccinia mCherry -16%.
CCN(C(=O)c1cc2c(=O)[nH]c3ccc(C)cc3c2s1)c1cccc(C)c1 was read as VACV Venus inh -5% and Vaccinia mCherry inactive.
Screening O=C(NC1CC1)C1CCN(C2CCN(C(=O)/C=C/c3ccc(F)cc3)CC2)CC1 returned VACV Venus inh -5% and Vaccinia mCherry inactive.
CCc1ccc2oc(-c3cc(NC(=O)c4cccs4)ccc3Cl)nc2c1 was read as VACV Venus inh -11% and Vaccinia mCherry -4%.
Screening CCn1c(C)c(C2=CCN(S(=O)(=O)c3ccccc3)CC2)c2ccccc21 returned VACV Venus inh 5% and Vaccinia mCherry -10%.
For CCC(Cc1ccccc1)NS(=O)(=O)c1ccc2c(c1)NC(=O)C(C)S2 (configuration not stated) the results were VACV Venus inh -8%[7.34 µM] and Vaccinia mCherry -5%[7.34 µM].
Screening COc1ccccc1CNCc1cc(=O)oc2c(C)c(C)ccc12 returned VACV Venus inh -19% and Vaccinia mCherry inconclusive.
`COc1ccc(Cl)cc1NC(=O)N1CC(=O)Nc2sc3c(c2C1c1ccccc1)CCCC3` (configuration not stated) gave VACV Venus inh -26% and Vaccinia mCherry -26%.
`CCOC(=O)c1sc(NC(=O)C2CC=CCC2C(=O)O)nc1C` (configuration not stated) gave VACV Venus inh -7% and Vaccinia mCherry inactive.
`O=C(Nc1ccc(N2CCCC2)c(Cl)c1)c1ccc([N+](=O)[O-])o1` gave VACV Venus inh 14µM* and Vaccinia mCherry 16µM*.
`Cc1nnc(SCC(=O)N/N=C/c2cn(-c3ccccc3)nc2-c2ccccc2)n1-c1ccccc1` gave VACV Venus inh inconclusive and Vaccinia mCherry inconclusive.
For COc1ccc(Cl)cc1NC(=O)CNc1ccccc1F the results were VACV Venus inh -29% and Vaccinia mCherry -30%.
`O=C(N/N=C/c1cccnc1)c1ccc(NC(=O)c2ccc(F)cc2)cc1` gave VACV Venus inh -3% and Vaccinia mCherry -12%.
Screening COc1ccc(CSC2=NCCN2)cc1Cl returned VACV Venus inh -20% and Vaccinia mCherry inactive.

Overlap with the part before: two compounds; new compounds follow.
`O=C(N/N=C/c1cccnc1)c1ccc(NC(=O)c2ccc(F)cc2)cc1` gave VACV Venus inh -3% and Vaccinia mCherry -12%.
Screening COc1ccc(CSC2=NCCN2)cc1Cl returned VACV Venus inh -20% and Vaccinia mCherry inactive.
Screening CCN1CCN(c2oc(/C=C/c3ccc(OC)c(OC)c3)nc2C#N)CC1 returned VACV Venus inh -12% and Vaccinia mCherry -10%.
O=C(c1cccnc1)N1N=C2CCCCCC2C1(O)C(F)(F)F (configuration not stated) was read as VACV Venus inh -11% and Vaccinia mCherry -30%.
Cc1cc(C(=O)N2CCCc3ccccc32)ccc1[N+](=O)[O-] was read as VACV Venus inh -11% and Vaccinia mCherry -2%.
Cc1cccc(NC(=O)c2cnn(C)c2)c1C was read as VACV Venus inh -8% and Vaccinia mCherry inactive.
`CCOc1cc2[nH]c(=S)n(Cc3ccc(C(=O)NCCCN(CC)CC)cc3)c(=O)c2cc1OCC` gave VACV Venus inh -10% and Vaccinia mCherry inactive.
Screening COCCN(C(=O)/C=C/c1cccc([N+](=O)[O-])c1)c1c(N)n(Cc2ccccc2)c(=O)[nH]c1=O returned VACV Venus inh -16% and Vaccinia mCherry -1%.
O=C(NC1CCCC1)C(c1cccnc1)N(Cc1ccccc1F)C(=O)c1csnn1 (configuration not stated) was read as VACV Venus inh 10% and Vaccinia mCherry -15%.
`CSc1ccc(S(=O)(=O)N(CC(=O)NN=C2CCN(C)CC2)c2ccc(C)cc2)cc1` gave VACV Venus inh -10% and Vaccinia mCherry -1%.
O=C(Nc1nc(-c2cc3ccccc3oc2=O)cs1)c1ccc(Br)o1 was read as VACV Venus inh -10%.
Screening CN(C)c1ccc(C2C3C=CC(C3)C2(C#N)C(=O)O)c(Br)c1 (configuration not stated) returned VACV Venus inh -5% and Vaccinia mCherry -13%.
Screening COc1ccc(/C=C(\NC(=O)c2ccccc2)C(=O)NCc2ccco2)cc1 returned VACV Venus inh -2% and Vaccinia mCherry -7%.
`COc1cc(SC#N)ccc1N=Cc1c(C)[nH]n(-c2ccc(Cl)cc2)c1=O` gave VACV Venus inh -8% and Vaccinia mCherry inactive.
For Cc1nn(Cc2cccc(C(=O)N3CCCC(C)C3)c2)c(C)c1[N+](=O)[O-] (configuration not stated) the results were VACV Venus inh -21% and Vaccinia mCherry -25%.
For CCc1ccccc1NC(=O)CN1CCCN(Cc2cc(C)ccc2C)S1(=O)=O the results were VACV Venus inh -12% and Vaccinia mCherry -13%.
For O=C(CSc1cn(Cc2ccccc2)c2ccccc12)Nc1nccs1 the results were VACV Venus inh -8% and Vaccinia mCherry -25%.
COc1cc(OC)cc(C(=O)Nc2cc3c(cc2N2CCCCC2)n(C)c(=O)n3C)c1 was read as VACV Venus inh -5% and Vaccinia mCherry 2%.
Screening COc1ccc(-c2cc(C(F)(F)F)n3nc(C(=O)NCCCN4CCOCC4)cc3n2)cc1 returned VACV Venus inh -5% and Vaccinia mCherry 2%.
Cc1c(Cl)cc(C(C)C)c(O)c1CN1CCOCC1 was read as VACV Venus inh -17% and Vaccinia mCherry -3%.
For CCc1cc2c(=O)[nH]c(N3CCOCC3)nc2s1 the results were VACV Venus inh -12% and Vaccinia mCherry -21%.
`C=CCn1c(O)c(C(C)=NCCCN(C)C)c(=O)[nH]c1=O` gave VACV Venus inh -14% and Vaccinia mCherry inactive.
`COc1ccc(Cl)c(NC(=O)Nc2c(C)n(-c3ccccc3)c(=O)n2C)c1` gave VACV Venus inh -21%.
Screening CSC(=S)N(C)C1CCS(=O)(=O)C1 (configuration not stated) returned VACV Venus inh -9% and Vaccinia mCherry inactive.
Screening CC(C)(CCl)C(=O)Nc1ccc(C(F)(F)F)cc1 returned VACV Venus inh -13% and Vaccinia mCherry -14%.
`COc1ccc(C(CNC(=O)C(C)Oc2ccc(Br)cc2)N2CCOCC2)cc1` (configuration not stated) gave VACV Venus inh -10% and Vaccinia mCherry -7%.
`O=C(CN1C(=O)NC2(CCCC2)C1=O)OCc1ccccc1F` gave VACV Venus inh -1% and Vaccinia mCherry -13%.
For O=C(Nc1nccc(-c2cccs2)n1)c1ccccc1Cl the results were VACV Venus inh -25% and Vaccinia mCherry -9%.
Screening CCC(C)N(C(=O)Cn1nnc(-c2ccc(Cl)cc2)n1)C1CCS(=O)(=O)C1 (configuration not stated) returned VACV Venus inh -10% and Vaccinia mCherry inactive.
Screening Fc1ccc(NC(=S)NCc2ccc3c(c2)OCO3)cc1 returned VACV Venus inh 6% and Vaccinia mCherry -15%.
`Cc1cccc(N2CCN(c3nc4ccc(C(=O)c5ccccc5)cc4n4cnnc34)CC2C)c1` (configuration not stated) gave VACV Venus inh -8% and Vaccinia mCherry -10%.
Screening Cc1cc(C)cc(C(=O)N2CC(=O)Nc3ccccc32)c1 returned VACV Venus inh inconclusive and Vaccinia mCherry -19%.

Entries listed so far that contain two or more sulfur atoms, in the order listed:
For O=C(NCc1cccs1)C1CCN(S(=O)(=O)c2cccc([N+](=O)[O-])c2)CC1 the results were VACV Venus inh -6% and Vaccinia mCherry -23%.
For CCC(Cc1ccccc1)NS(=O)(=O)c1ccc2c(c1)NC(=O)C(C)S2 (configuration not stated) the results were VACV Venus inh -8%[7.34 µM] and Vaccinia mCherry -5%[7.34 µM].
`CSc1ccc(S(=O)(=O)N(CC(=O)NN=C2CCN(C)CC2)c2ccc(C)cc2)cc1` gave VACV Venus inh -10% and Vaccinia mCherry -1%.
For O=C(CSc1cn(Cc2ccccc2)c2ccccc12)Nc1nccs1 the results were VACV Venus inh -8% and Vaccinia mCherry -25%.
Screening CSC(=S)N(C)C1CCS(=O)(=O)C1 (configuration not stated) returned VACV Venus inh -9% and Vaccinia mCherry inactive.
